# gsp antag: antagonizes gsp, the McCune-Albright syndrome mutation; gsp-mutant cells, cAMP HTRF, 30 min; control for the full effect not named in the record; Potency, µM (titrated, usually from 76.9 µM), for the others: at the top dose activity change, negative = inhibition, hits mostly inhibitors; actives 0.4% (n = 340,000); AID 624288; active = falling curve of any shape with a large fitted effect; inconclusive = falling curve, mostly with a smaller effect; inactive = flat or rising curve; cell line not stated here;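 note: intracellular cAMP measured with PDE inhibitor Ro 20-1724 present during compound exposure; potency is the fitted concentration of half-maximal effect; % is set by controls: 0 for no effect and ±100 for the full control effect; nearly all actives have a fitted effect of over 65% in size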
#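 HTRF cAMP read-out (cAMP-d2 plus anti-cAMP antibody-K in lysis buffer, 30 min RT). Before lysis, cells are exposed to compounds with […] for 30 min at 37C in DPBS containing Ca/Mg, BSA and Tween 20.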
# TRPML1 agonist: activates the human TRPML1 channel; Q9GZU1; TRPML1-expressing cells, Ca2+ dye fluorescence, FDSS; host cell line not named in the record; reference of the full effect not given here; activation, % (concentration not given with the values); actives 0.12% (n = 410,000); in the data active = activation above about 50%; inconclusive = about 30% to 50%; inactive = below about 30%; note: 0% is about no effect; the text of the record puts the active cut at 80%
# Target sequence (Q9GZU1 whole entry, looked up): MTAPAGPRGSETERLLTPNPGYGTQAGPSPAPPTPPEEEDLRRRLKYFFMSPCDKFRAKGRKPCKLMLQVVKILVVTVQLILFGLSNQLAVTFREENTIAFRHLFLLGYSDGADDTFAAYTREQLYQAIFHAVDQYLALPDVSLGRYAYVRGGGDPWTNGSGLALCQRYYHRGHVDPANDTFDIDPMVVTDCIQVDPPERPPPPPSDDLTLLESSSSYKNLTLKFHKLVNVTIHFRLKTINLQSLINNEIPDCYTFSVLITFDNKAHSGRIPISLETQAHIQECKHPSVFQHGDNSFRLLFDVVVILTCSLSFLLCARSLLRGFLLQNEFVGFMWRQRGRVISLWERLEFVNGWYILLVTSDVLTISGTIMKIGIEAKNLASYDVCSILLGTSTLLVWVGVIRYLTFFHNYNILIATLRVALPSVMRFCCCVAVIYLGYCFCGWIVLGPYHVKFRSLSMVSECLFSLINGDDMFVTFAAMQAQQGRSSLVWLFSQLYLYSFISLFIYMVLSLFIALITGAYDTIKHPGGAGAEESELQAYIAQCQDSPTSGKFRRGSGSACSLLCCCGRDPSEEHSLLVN
#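 TRPML1-DL cells, Tet-induced overnight (~16 h, 37 degrees C), loaded 45-90 min at room temperature with Ca8 no-wash calcium dye plus quencher. FDSS fluorescence: 10 s baseline, compound pin-transfer, 110 s agonist read, then EC80 54-4 (4uM final) and 110 s antagonist read.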
# TRPML1 blocker: human mucolipin-1 channel inhibition; Q9GZU1; TRPML1-inducible cells, Ca2+ dye fluorescence, FDSS; hits give low values; inhibition of EC80 agonist-evoked calcium signal; activity change, negative = inhibition, % (no concentration beside the values); actives 0.02% (n = 390,000); AID 624415; in the data active means activity change below about -50%; inconclusive means about -30% to -50%; inactive means above about -30%;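 note: stimulus is agonist 54-4 at its EC80 concentration; % is set by controls: 0 for no effect and ±100 for the full control effect; compound concentration not given in the record; the text of the record puts the active cut at -80%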
#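 TRPML1-DL cells, Tet-induced overnight (~16 h, 37 °C) at 1,500 cells/well, were loaded with Ca8 no-wash dye plus quencher for 45-90 min at room temperature. Compounds were pinned during FDSS kinetic reading; agonist 54-4 at EC80 (4 uM final) then added.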
# Menin-MLL FL inh: inhibitors of human menin-MLL interaction, wild-type MLL peptide; Fluorescence polarization, fluorescein-MLL peptide displacement from menin; FP activity change, % at 61.4 µM; 290,000 tested, under 10 active; inconclusive = falling polarisation curve, or a change in total fluorescence; inactive = total fluorescence flat and polarisation flat or rising; no compound was filed as active; the % refers to the polarisation; negative = inhibition;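 note: % of control where 0% means no effect; inhibitors lower the polarisation; unlabelled MLL peptide was the positive control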
# gsp ag: activates gsp, the McCune-Albright syndrome mutation; actives 0.13% (n = 340,000); gsp mutant cells, cAMP HTRF, 30 min; control for the full effect not named in the record; Potency, µM (series often up to 76.9 µM), for inactives: top-dose activation (cAMP increase), hits mostly activators; active = well fitted activation curve with a large enough effect; inconclusive = small, poorly fitted or top-dose-only effect, or another doubt; inactive = no such curve, though single readings can be large or run the other way; cell line not stated here;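 note: phosphodiesterase inhibitor Ro 20-1724 added with compounds to block cAMP breakdown; potency is the fitted concentration of half-maximal effect; nearly all actives have a fitted effect of over 60% in size; about a fifth of the inactives were tested at one dose only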
#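 Cells stably selected in G418 were plated at 2000/well, grown 16-24 hr, then given compounds in DMSO with the PDE inhibitor […] (300 uM solution added) for 30 min at 37C; cAMP was read by HTRF.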
# ClpP mod: qHTS Assay for Activators of ClpP. actives 1.9% (n = 340,000). Potency, µM (doses to about 57.5 µM), without a hit: at the highest dose activity change, negative = active. purified B. subtilis ClpP, FRET peptide cleavage, 20 min; active = well fitted falling curve with a large enough effect; inconclusive = small, poorly fitted or top-dose-only effect; inactive = no such curve, though single readings can be large or run the other way; note: potency is the fitted concentration of half-maximal effect; the source files actives as falling curves though it sought activators and does not explain the sign; nearly all actives have a fitted effect of over 65% in size; many hits overshoot -100%
# Target sequence (P80244 whole entry, looked up): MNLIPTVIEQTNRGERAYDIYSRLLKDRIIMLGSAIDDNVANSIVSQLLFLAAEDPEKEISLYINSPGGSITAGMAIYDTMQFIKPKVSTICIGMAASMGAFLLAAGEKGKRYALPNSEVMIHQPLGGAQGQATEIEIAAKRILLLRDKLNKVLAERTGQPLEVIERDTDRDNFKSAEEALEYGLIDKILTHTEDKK
#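 ClpP 10 microg/mL final, pH 8 Tris/KCl buffer with BSA, glycerol, Tween-20; compound pinned in; FRET-FV substrate; RT 20 min; Ex320/Em430; ΔFRET vs ADEP 5.8 microM, DMSO, no enzyme.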
# Numbers without * were called inactive; ? = inconclusive; . = no result given; [ ] = remark or other dose.
Molecule	gsp antag	TRPML1 agonist	TRPML1 blocker	Menin-MLL FL inh	gsp ag	ClpP mod
O=C(CNc1cccc(C(F)(F)F)c1)Nc1cccc(S(=O)(=O)N2CCCC2)c1	?	0.9	-3	.	-36%[inhibitor]	-2.9%
Cn1c(C(=O)N2CCN(c3ccc([N+](=O)[O-])cc3)CC2)cc2c(=O)[nH]c3ccccc3c21	?	1.0	-17	1.3	4%	.
CCOCCCNC(=O)C1CCN(Cc2cccc(OCc3ccccc3)c2)CC1	-7%	-0.1	4	1.6	5%[15.4 µM]	0.0%
CCOC(=O)c1cc(OCC(=O)NC(C)C(C)C)cc(C(=O)OCC)c1 (stereo unspecified)	0%	1.7	80	2.1	-40%[inhibitor]	-1.3%
CCOc1ccccc1NC(=O)N1CCC(c2nc3ccc(C)cc3[nH]2)CC1	6%	1.1	0	-0.5	-40%[inhibitor]	0.2%
COc1ccc(CNC(=O)C(=O)NCC2OCCN2S(=O)(=O)c2ccccc2)cc1 (stereo unspecified)	0%	-0.7	-8	.	-7%[15.4 µM]	?
CCC(Cc1ccccc1)NC(=O)CCn1cccc1 (stereo unspecified)	3%	-0.8	-4	0.3	-9%	-1.6%
COCCN(C(=O)COC(=O)CCOc1cc(C)ccc1C)c1c(N)n(Cc2ccccc2)c(=O)[nH]c1=O	5%	0.2	-2	.	-21%	3.0%
COc1cccc2c1OC1(C)CC2N(C(=O)c2ccco2)C(=S)N1c1ccc(F)cc1 (stereo unspecified)	-4%	-0.9	-4	4.1	-8%	2.2%
COc1ccc(NC(=O)c2c(-c3ccc(C)cc3)nnc3ccccc23)c(OC)c1	.	-0.2	-19	.	.	0.5%
COc1cccc(CNC(=O)CCN2C(=S)NC(C)(C)CC2C)c1 (stereo unspecified)	5%	-0.2	21	-1.2	-13%	-2.2%
Cc1ccc(CN2C(=O)C(C)Sc3ccc(C#N)cc32)cc1 (stereo unspecified)	.	1.9	45	.	.	-5.5%
COc1ccccc1C(=O)NC(=O)COC(=O)c1cc[n+]([O-])cc1	-7%	0.0	9	.	-15%	1.3%
O=C(COc1ccc([N+](=O)[O-])cc1)Nc1cccc2nsnc12	7%	-0.1	0	?	?	-3.1%
Nc1c(C(=O)N/N=C/c2ccc(F)cc2)oc2nc(-c3ccccc3)cc(-c3ccco3)c12	-22%	-0.2	-17	?	4%[15.4 µM]	.
COCCCNC(=S)NNC(=O)c1csc2ccccc12	15%	-0.4	9	2.1	-43%[inhibitor]	-0.7%
CCOC(=O)c1[nH]c2cc(OC)c(OC)cc2c1NC(=O)C(C)N1CCN(Cc2ccccc2)CC1 (stereo unspecified)	24%	-0.4	-8	4.3	-2%	32µM*
Cc1nn(-c2ccccc2)c(N)c1N=Nc1cccnc1	-2%	2.0	22	-1.4	-26%	-3.2%
CCCC(=O)N(Cc1cc2ccccc2[nH]c1=O)c1ccccc1OC	-10%	0.3	-8	1.3	-1%	-24%
Cc1ccc(Cl)cc1N1CCN(C(=O)Cn2cnc3nc4c(cc3c2=O)CCCC4)CC1	.	1.3	-8	.	.	-4.6%
CC(=O)N1c2ccccc2Sc2ccccc21	1%	2.5	5	3.0	13%	-0.5%
Cc1ccc(-c2nnc(NC(=O)c3ccc([N+](=O)[O-])o3)o2)c(C)c1	3%	0.6	10	.	-5%	-0.4%
CN(C)CC#CCOC(c1ccccc1)c1ccccc1	0%	0.0	14	-2.9	-12%[15.4 µM]	0.0%
CCC(C)c1c(NS(=O)(=O)c2ccc(C)cc2)o[nH]c1=O (stereo unspecified)	1%	1.7	-14	.	-16%	.

# Entries of single compounds, quoted from the list:
# `CCCC(=O)N(Cc1cc2ccccc2[nH]c1=O)c1ccccc1OC` across the screens: gsp antag: -10%; TRPML1 agonist: 0.3; TRPML1 blocker: -8; Menin-MLL FL inh: 1.3; gsp ag: -1%; ClpP mod: -24%
# `Cc1nn(-c2ccccc2)c(N)c1N=Nc1cccnc1` across the screens: gsp antag: -2%; TRPML1 agonist: 2.0; TRPML1 blocker: 22; Menin-MLL FL inh: -1.4; gsp ag: -26%; ClpP mod: -3.2%

# Next part.
Molecule	gsp antag	TRPML1 agonist	TRPML1 blocker	Menin-MLL FL inh	gsp ag	ClpP mod
CCC(C)Sc1nnc(Cc2cc(=O)[nH]c(=O)[nH]2)n1-c1ccc(OC)cc1 (stereo unspecified)	7%	-0.6	5	0.7	12%	-6.3%
COc1cc(CCCN2CCNC[C@@H]2CC2CCCCC2)cc(OC)c1OC	13%	-0.4	1	.	.	2.2%
CN(CCCC(=O)N1CCCC(C(N)=O)C1)S(=O)(=O)c1ccc(F)cc1 (stereo unspecified)	11%	0.0	-4	0.3	1%	.
Cc1cc(NC(=O)CSc2nnc(COc3cccc(C)c3C)n2Cc2ccco2)no1	3%	0.4	3	0.6	14%	0.5%
Nc1ccc2c(c1)C(O)c1ccc(Cl)cc1-2 (stereo unspecified)	-3%	-0.1	5	.	-2%[15.4 µM]	-2.0%
CN(/N=C/c1ccc(O)cc1O)c1ncc(C(F)(F)F)cc1Cl	7%	5.8	-20	5.3	-9%	-1.2%
O=C(C[C@H]1C/C=C\C[C@@H](Cc2ccc(F)cc2)C(=O)OC[C@@H](Cc2c[nH]c3ccccc23)NC1=O)NCCO	5%	-0.2	49	.	-7%	-1.7%
COc1ccc(NC(C)=O)cc1CNC(=O)CN1CCOCC1	6%	-0.3	-1	-1.0	3%[15.4 µM]	0.9%
CC(C)(C)n1nc2c(c1NC(=O)c1cccc(C(F)(F)F)c1)CS(=O)C2 (stereo unspecified)	7%	-0.1	8	1.6	2%[15.4 µM]	0.9%
Cc1ccc(C)c(NC(=O)CSc2nnc(C3CCCCC3)o2)c1	8%	0.8	14	1.1	4%[15.4 µM]	.
Cc1ccccc1SCc1noc(C(=O)NCC2CCCO2)c1C(=O)O (stereo unspecified)	-7%	0.6	4	0.0	.	-0.4%
O=C(Nc1ccc2c(c1)OCCO2)c1ccc(Cl)c(S(=O)(=O)N2CCOCC2)c1	-26%	0.0	-8	1.5	?	0.7%
CSc1ccc(-c2nc(CN3CCCCC3c3cccnc3)c(C)o2)cc1 (stereo unspecified)	-12%	0.1	12	11	24%	.
Clc1ccc(CSCCc2ccncc2)cc1	0%	2.4	44	3.4	-2%	0.4%
CC1Cc2nc(SCC(=O)Nc3ccc4c(c3)OCO4)n(-c3ccc(F)cc3)c(=O)c2S1 (stereo unspecified)	-7%	-0.4	-4	0.5	26%	-0.2%
COc1ccccc1CC1CC(=O)N(c2ccc([N+](=O)[O-])cc2)C1=O (stereo unspecified)	.	-0.5	22	.	-10%	-1.5%
c1ccc2c(c1)CCCc1cc(NCCN3CCOCC3)nnc1-2	-1%	-0.7	2	-1.6[24.8 µM]	.	0.7%
O=C(c1ccc(Cl)c(S(=O)(=O)N2CCCC2)c1)N1CCCC(C(F)(F)F)C1 (stereo unspecified)	3%	-0.6	-1	.	-63%[inhibitor]	-1.6%
C[C@H](O)[C@@H]1C(=O)N2CCc3c([nH]c4ccccc34)[C@@H]2C[C@@H]1N(C)Cc1ccc2c(c1)OCO2	.	0.7	-1	.	6%	-12%
CCOc1ccccc1N1CCN(C(=O)Nc2ccc(F)c(Cl)c2)CC1	10%	1.5	50	4.1	?	-2.8%
COc1ccc(C(=O)n2cc(C(=O)c3cc(C)ccc3O)cn2)cc1	10%	-0.5	-9	-0.6	-2%	-3.9%
Cc1cnc(=O)[nH]c1SCC(=O)c1ccc(F)cc1	7%	1.9	35	-1.6	-8%	-3.0%
Cc1ccccc1NC(=O)Cc1c[nH]c2ccccc12	-2%	-1.6	-2	1.7	3%	-2.1%
CCc1c(C)sc(NC(=O)c2cc3nc(-c4ccc(OC)cc4)cc(C(F)(F)F)n3n2)c1C(=O)OC	.	-0.7	1	.	.	-9.1%
CCc1nc(SCC(=O)O)c2c3c(sc2n1)COC(C)(C)C3	-11%	-1.1	1	-12	10%[15.4 µM]	-2.3%
COc1ccccc1NS(=O)(=O)c1ccc(N2CCOCC2)c(N)c1	-1%	-0.4	-8	.	-4%[15.4 µM]	?
COc1ccc(C(=O)NNC(=O)Cc2coc3cc(OC)ccc23)cc1	-1%	-0.1	-4	.	-5%[15.4 µM]	-2.7%
Cc1ccc(OCC(=O)N/N=C/c2cccnc2)cc1	5%	0.8	4	.	-25%	1.2%
CCCCn1c(N)c(NCCC(C)C)c(=O)[nH]c1=O	-4%	-1.8	1	?	0%	-28%
COC(=O)Nc1ccc(S(=O)(=O)NCCO)cc1	7%	-0.6	-3	2.7	20%	-3.1%
CCN(CC)c1ccc(NC(=O)C2CCN(S(=O)(=O)c3cnc[nH]3)CC2)c(C)c1	.	-0.1	11	.	.	-1.7%
COc1ccc(/C=N/NC(=O)c2nn(-c3ccc(C)c(C)c3)c(=O)c3ccccc23)cc1	6%	2.2	-11	0.4	-23%	-6.9%
O=C1c2sccc2-c2cccc3cccc1c23	.	2.0	15	.	-60%[inhibitor]	-0.5%
O=c1nc(N2CCOCC2)ccn1Cc1ccc(Br)cc1	-10%	0.4	7	-1.5	-13%	0.0%
Cc1nnc(SCCn2c(N(C)Cc3ccccc3)nc3c2c(=O)n(C)c(=O)n3C)s1	-6%	0.2	3	.	15%	0.5%
CCOc1cc(C(c2c(C)[nH][nH]c2=O)c2c(C)[nH][nH]c2=O)ccc1OCc1ccc([N+](=O)[O-])cc1	-12%	0.7	-12	4.9	-13%	0.0%
COc1ccc(C(=O)N/C(=C\c2cn(C)c3ccccc23)C(=O)OCC(C)C)cc1	-7%	1.7	12	3.5	25%	2.7%
COCCNc1nc(-c2cc(-c3ccccc3)on2)cc(C(C)C)n1	-13%	0.5	-6	1.6	.	-5.4%
Cc1cc(C)nc(NS(=O)(=O)c2ccc(NC(=O)c3ccc(S(=O)(=O)N(C)C)cc3)cc2)n1	-5%	0.2	10	-0.1	28%	-1.5%
C=C1C(=O)O[C@H]2C[C@H]1[C@@H](OC(C)=O)C/C(C)=C/CC/C(C)=C\CC[C@]2(C)O	16%	-0.2	-17	.	.	1.0%
Cc1cc(Nc2ccc(F)cc2)n2c(nc3ccccc32)c1C#N	.	0.3	-6	.	.	-1.9%
CC(Oc1ccccc1)C(=O)N=C1SC2CS(=O)(=O)CC2N1Cc1ccc(F)cc1 (stereo unspecified)	-6%	-1.1	3	.	-6%	0.6%
Cc1nn(CC(=O)O)c2ccccc12	3%	1.2	-12	2.1	-87%[inhibitor]	-5.3%
